TRPV1 PAM = enhances activation of the human vanilloid receptor TRPV1 | potentiation, % at 8.33 µM | Q8NER1 | TRPV1-expressing cells, Fluo-8 calcium influx, capsaicin EC20 potentiation; host cell line not named in the record; control for the full effect not named in the record | 0.02% of 320,000 active; active means potentiation above 80%; inconclusive means 30% to 80%; inactive means below 30%; also: 0% is about no effect
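Cells expressing TRPV1 were dye-loaded with Fluo-8 and read kinetically: 10 s baseline, 3 min after compound (agonist portion), then 2 min after EC20 capsaicin (allosteric enhancer portion). Calcium-bound dye fluorescence at 480/520 nm.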
gsp ag = activates gsp, the McCune-Albright syndrome mutation | Potency, µM (top dose mostly 76.9 µM), inactives show at the highest dose activation (cAMP increase), actives largely listed as activators | 0.13% of 340,000 active | gsp mutant cells, cAMP HTRF, 30 min; control for the full effect not named in the record | AID 624287; active = well fitted activation curve with a large enough effect; inconclusive = small, poorly fitted or top-dose-only effect, or another doubt; inactive = no such curve, though single readings can be large or run the other way; cell line not stated here;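 also: phosphodiesterase inhibitor Ro 20-1724 added with compounds to block cAMP breakdown; potency is read from the fitted curve at half-maximal effect; nearly all actives have a fitted effect of over 60% in size; about a fifth of the inactives were tested at one dose only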
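Cells in DMEM/10% FBS with G418 were pretreated with compounds in DMSO plus […] (300 uM stock) for 30 min at 37C. cAMP was measured by HTRF (cAMP-d2 plus anti-cAMP antibody-K) after 30 min at room temperature.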
D2 PAM = potentiates the human D2 dopamine receptor allosterically. potentiation, % (no concentration beside the values). P14416. DiscoveRx D2 beta-arrestin cells, luminescence, 90 min; 100% = 57 uM dopamine signal. 0.23% of 360,000 active; active = potentiation of 50% or more; inconclusive = 30% to 50%; inactive = 30% or less;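 also: compound concentration not given in the record; tested on top of an EC20 dose of dopamine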
Target sequence (P14416 whole entry, looked up): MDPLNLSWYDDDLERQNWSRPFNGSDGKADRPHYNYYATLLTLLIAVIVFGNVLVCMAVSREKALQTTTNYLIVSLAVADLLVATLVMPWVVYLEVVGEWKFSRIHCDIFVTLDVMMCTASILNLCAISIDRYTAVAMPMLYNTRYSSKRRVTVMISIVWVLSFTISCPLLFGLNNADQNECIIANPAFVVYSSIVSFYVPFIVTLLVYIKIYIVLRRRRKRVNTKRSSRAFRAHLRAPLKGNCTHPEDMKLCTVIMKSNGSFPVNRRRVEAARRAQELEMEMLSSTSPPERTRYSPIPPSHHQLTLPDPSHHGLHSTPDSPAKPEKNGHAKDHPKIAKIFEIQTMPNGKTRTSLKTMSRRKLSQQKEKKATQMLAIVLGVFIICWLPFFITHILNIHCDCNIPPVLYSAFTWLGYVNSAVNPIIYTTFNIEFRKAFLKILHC
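PathHunter D2 cells, attached overnight at 37 deg C, received compound in DMSO plus dopamine at EC20 (50 nM final) for 90 min at 37 deg C. Beta-arrestin recruitment was read as luminescence after 1 h with detection reagent at ambient temperature.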
Sfp inh = Sfp phosphopantetheinyl transferase inhibition; Potency, µM, for inactives: max response, negative = inhibition, actives largely listed as inhibitors; Biochemical Sfp PPTase activity, qHTS; 3.5% of 310,000 active; active = well fitted inhibition curve with a large enough effect; inconclusive = small, poorly fitted or top-dose-only effect, or another doubt; inactive = no such curve, though single readings can be large or run the other way;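 also: the enzyme is Sfp with the accession as filed and its product quenches rhodamine fluorescence; potency is read from the fitted curve at half-maximal effect; 0% = enzyme reaction without inhibitor and -100% = no enzyme wells; top concentration of the series not given in the record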
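Reaction rates are the 30-min fluorescence difference (ex 525, em 598 nm) in wells containing 15 nM Sfp, 5 uM rhodamine-CoA and 12.5 uM BHQ-2-YbbR at pH 7.6 with 10 mM MgCl2.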
gsp antag = gsp mutant antagonism. gsp-mutant cells, cAMP HTRF, 30 min; control for the full effect not named in the record. Potency, µM (top dose mostly 76.9 µM), for inactives: top-dose activity change, negative = inhibition, hits mostly inhibitors. 0.4% of 340,000 active. AID 624288; active = falling curve of any shape with a large fitted effect; inconclusive = falling curve, mostly with a smaller effect; inactive = flat or rising curve; cell line not stated here;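 also: intracellular cAMP measured with PDE inhibitor Ro 20-1724 present during compound exposure; potency is read from the fitted curve at half-maximal effect; % is scaled to controls: 0 for no effect and ±100 for the full control effect; nearly all actives have a fitted effect of over 65% in size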
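Cells in G418 medium, seeded 16-24 h, 37C; buffer exchange to DPBS + 1 mM CaCl2, 0.5 mM MgCl2, 0.05% BSA; cpds in DMSO + […] (300 uM stock), 30 min 37C; HTRF cAMP detection.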
ClpP mod = qHTS Assay for Activators of ClpP; Potency, µM (top dose mostly 57.5 µM), inactives show top-dose activity change, negative = active; 1.9% of 340,000 active; purified B. subtilis ClpP, FRET peptide cleavage, 20 min; ATP-dependent Clp protease proteolytic subunit (Bacillus subtilis (strain 168)), P80244; active = well fitted falling curve with a large enough effect; inconclusive = small, poorly fitted or top-dose-only effect; inactive = no such curve, though single readings can be large or run the other way; also: potency is read from the fitted curve at half-maximal effect; the source files actives as falling curves though it sought activators and does not explain the sign; nearly all actives have a fitted effect of over 65% in size; many hits overshoot -100%
Target sequence (P80244 whole entry, looked up): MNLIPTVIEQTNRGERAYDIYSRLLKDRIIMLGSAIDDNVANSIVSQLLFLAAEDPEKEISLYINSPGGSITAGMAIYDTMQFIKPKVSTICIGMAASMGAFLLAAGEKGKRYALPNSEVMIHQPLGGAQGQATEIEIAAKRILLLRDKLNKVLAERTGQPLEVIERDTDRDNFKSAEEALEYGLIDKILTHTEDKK
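FRET quenching reversal measured ClpP activation: 10 microg/mL B. subtilis ClpP at pH 8 with the FRET-FV decapeptide, read at 430 nm after 320 nm excitation. The 20-min minus 0-min signal was scaled between DMSO/no-enzyme wells and ADEP (5.8 microM final).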
Menin MLL FP FL = displaces fluorescein MLL peptide from human menin; Fluorescence polarization, fluorescein-MLL peptide displacement from menin; FP activity change, % at 61.4 µM; 290,000 tested, under 10 active; AID 1766; inconclusive = falling polarisation curve, or a change in total fluorescence; inactive = total fluorescence flat and polarisation flat or rising; no compound was filed as active; the % refers to the polarisation; negative = inhibition;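 also: % of control where 0% means no effect; inhibitors lower the polarisation; unlabelled MLL peptide was the positive control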
Starred values were filed as active, the others as inactive; ? = inconclusive; . = no result given; [ ] = another dose, or the depositor's remark.

SMILES	TRPV1 PAM	gsp ag	D2 PAM	Sfp inh	gsp antag	ClpP mod	Menin MLL FP FL
CCN(CC(=O)Nc1ccc(NC(C)=O)cc1)C(=O)CSc1nnc(-c2ccco2)n1CC	6	10%[15.4 µM]	-16	.	4%	-0.5%	.
Cc1ccc(NC(=O)CSc2n[nH]c(-c3cccnc3)n2)cc1Cl	?	-7%	-2	10%	?	.	-2.3
Cc1ccc(NC(=O)C2CCN(C(=O)[C@@H]3Cc4ccccc4CN3)CC2)cc1	1	-12%	-16	2%	10%	-1.3%	7.0
CNC(=O)NNC(=O)c1csc(-c2ccc(C(F)(F)F)cc2Cl)n1	6	8%[15.4 µM]	-4	-31%	7%	.	3.0
COc1cccc(CC(=O)NNC(=O)c2c(-c3ccccc3)noc2C)c1	-24	2%	-9	16%	-5%	-0.5%	-0.7
CCN(CC)S(=O)(=O)c1ccc(N2CCCC2)c(NC(=O)c2ccncc2)c1	-4	26%	-9	10%	9%	1.6%	-1.8
O=C(Nc1ccccc1-c1ccccc1)C1CCCCC1	6	13%	-26	28%	3%	0.6%	2.9
CC(C)Oc1ccc(C(=O)Nc2ccc(N(C)C)cc2)cc1	-15	-24%	0	-10%	-6%	-0.2%	-1.2
CCOC(=O)C1=C(COC(=O)CSc2ccc(C)cc2C)NC(=O)NC1C (stereo unspecified)	1	?	-6	.	-6%	-0.6%	.
COc1ccc(S(=O)(=O)N2CCC(C(=O)Nc3ccc4c(c3)OCCO4)CC2)cc1OC	-2	-2%	15	7%	-16%	-2.3%	4.4
O=C(COc1cccc(Cl)c1)Nc1cc(S(=O)(=O)N2CCOCC2)ccc1N1CCOCC1	0	1%	-2	1%	-6%	-0.9%	20
CCOC(=O)CN(C(=O)Cn1nnc2ccccc21)C(C(=O)NCCOC)c1ccccc1C (stereo unspecified)	-5	2%	-7	12%	7%	-1.2%	2.3
Cc1cc(N2CCN(c3nnnn3-c3ccccc3)CC2)n2ncnc2n1	-1	8%	5	1%	3%	0.3%	0.8
COc1cc2c(c3oc(-c4ccccc4)cc(=O)c13)C=CC(C)(C)O2	-8	.	-36	?	-13%	-3.7%	4.7
CCOC(=O)N1CCN(C(=O)c2cc3ccccc3o2)CC1	-11	-21%[15.4 µM]	0	6%	2%	0.8%	-1.4
COc1nnc(-c2ccc(N3CCOCC3)c(NC(=O)c3ccc(C)cc3)c2)c2ccccc12	7	-19%	-23	13%	11%	-2.8%	2.1
CCN(CC(=O)Nc1c(F)cccc1F)C(=O)C1CCN(S(=O)(=O)c2ccc(C)cc2C)CC1	0	-4%[15.4 µM]	1	.	-2%	.	.
C/C(=C\c1ccccc1)CN1CCC(C(=O)N2CCC(C)CC2)CC1	-5	?	-12	-10%	2%	-2.2%	-2.1
CC[C@@]12C(=O)N(c3cccc(F)c3)C(=O)N1[C@H](c1ccc(OC)cc1)[C@@H]1C(=O)N(C(C)(C)C)C(=O)[C@@H]12	1	-12%	-4	.	7%	0.3%	.
O=C(Cc1ccc(S(=O)(=O)N2CCOCC2)s1)Nc1ccc(N2CCOCC2)cc1	-3	-10%[15.4 µM]	-19	6%	.	.	13
COC(=O)c1cc(S(=O)(=O)NCCc2ccc(Cl)cc2)c[nH]1	0	22%	1	6%	5%	-1.6%	-2.1
Cc1ccccc1OCC(=O)NCC(c1cccs1)N1CCOCC1 (stereo unspecified)	-12	0%[15.4 µM]	-11	.	-8%	.	.
CC(=O)c1ccc(-n2c(C)ccc2-c2ccccc2)cc1	-8	?	-14	-19%	-9%	-0.6%	5.5
O=C(NCc1ccccn1)Nc1ccccc1Cl	-1	-17%	-37	6%	11%	-2.1%	-2.7
CN1CCN(C(=O)/C=C\C(=O)O)CC1	-6	13%	5	7%	9%	-0.8%	0.5
CCC(=O)N1CCc2cc(S(=O)(=O)NC(Cc3ccccc3)C(=O)Nc3nccs3)ccc21 (stereo unspecified)	12	-5%	-8	0%	-6%	-2.0%	1.1
COC(=O)c1cc(S(=O)(=O)Nc2cccc(-c3cnco3)c2)oc1C	-4	?	8	14%	-2%	0.9%	2.1
CCOC(=O)c1nn(-c2cccc(Cl)c2)c2nc(Nc3ccccc3)cc(=O)n12	-9	-12%	8	2%	0%	-5.6%	5.3
Cc1sc2ncnc(N3CCN(Cc4ccccc4)CC3)c2c1-c1ccc(F)cc1	0	-5%[15.4 µM]	-9	-9%	17%	-0.2%	6.3
COc1cccc(OC)c1C(=O)NC(=S)Nc1cc(-c2nc3ccccc3[nH]2)ccc1Cl	6	?	16	-25%	-5%	2.1%	0.9
O=C(Nc1cccc(S(=O)(=O)N2CCOCC2)c1)c1cn(-c2ccccc2)nc1-c1ccc(F)cc1	4	-4%[15.4 µM]	0	28%	4%	-0.5%	4.6
Cc1c(NC(=O)C(=O)/C=C(\O)c2ccc(Cl)cc2)c(=O)n(-c2ccccc2)n1C	1	2%	-9	-1%	5%	-5.3%	14
COc1ccc(NC(=O)CSc2nnnn2C2CCCC2)cc1	11	1%	-8	-12%	1%	0.9%	-4.6
CCOC(=O)c1c(NC(=O)c2ccc(S(=O)(=O)N3CCOCC3)cc2)sc2c1CCN(C(C)C)C2	-20	6%	-13	8%	-7%	32%	.
COc1ccc(NC(=O)c2ccc3c(c2)n(C)c(=O)n3C)cc1	-2	?	-8	11%	6%	-1.5%	3.4
O=C(O)Cn1cc(/C=C2/SC(=O)N(CC(=O)N3CCCCCC3)C2=O)c2ccccc21	0	-13%[15.4 µM]	-8	5%	-12%	.	14
Cc1sc2nc(CSCC(=O)NC(C)(C)C)[nH]c(=O)c2c1C	3	?	-38	-8%	-5%	-6.8%	9.3
COc1cc(-c2cc(C(=O)OCC(=O)Nc3ccc4c(c3)OCO4)c3ccccc3n2)cc(OC)c1OC	?	?	1	-25%	16%	-5.7%	-0.2
NC(=O)[C@@H]1CCCN1Cc1c(C(=O)N2CCc3ccccc3C2)nc2ccc(Cl)cn12	-2	-11%	-12	1%	-6%	-2.2%	.
CCOC(=O)N1CCN(C(=O)C(=O)NNC(=O)COc2ccc(Cl)cc2)CC1	-2	-2%[15.4 µM]	1	16%	?	.	0.3
Cc1ccc2c(=O)cc(C(=O)NC3CCS(=O)(=O)C3)oc2c1 (stereo unspecified)	15	10%	-10	12%	0%	0.5%	.
Cc1cc(C)n(-c2ccc(NC(=O)C3CCCCN3C(=O)c3cc(C)oc3C)cc2)n1 (stereo unspecified)	7	5%	0	-8%	-4%	1.1%	9.5
CNCC(O)CN(c1ccccc1)c1ccccc1 (stereo unspecified)	-4	-20%[15.4 µM]	-8	-6%	.	.	-2.5
CCC(=O)Nc1ccc2nc(SCC(=O)N3CCOCC3)sc2c1	0	-9%[15.4 µM]	-11	22%	5%	.	2.1
Cn1c2ccccc2c2cc(/C=N/NC(=O)c3ccccc3F)ccc21	1	?	-36	5%	-23%	4.5%	-0.2
COc1cc([N+](=O)[O-])ccc1Nc1nc(C)cc(C)n1	7	7%[15.4 µM]	-13	26%	-16%	.	-3.9
Cc1ccsc1C(=O)N(C)C1CCS(=O)(=O)C1 (stereo unspecified)	-2	-40%[inhibitor]	-5	.	5%	1.0%	.
O=C(NCCOc1ccccc1)C1CCC(=O)N(CCc2ccc(Cl)cc2)C1 (stereo unspecified)	-6	3%[15.4 µM]	-5	5%	-1%	2.4%	.
OCCC1CN(Cc2ccc3nsnc3c2)CCN1CCc1ccccc1 (stereo unspecified)	5	-8%[15.4 µM]	-18	4%	11%	.	0.7
COc1ccc(OC)c(NC(=O)c2cc3ccccc3o2)c1	-7	13%	-14	-2%	?	-2.3%	5.4
O=C(c1ccco1)N1CCN(C(=O)C2(S(=O)(=O)c3ccc(Cl)cc3)CC2)CC1	10	-39%[inhibitor]	-3	6%	2%	-0.3%	-0.3
Cc1sc2c(c1C)c(=O)n(-c1ccccc1)c1nncn21	-1	-6%	-2	17%	7%	-11%	4.0
CCCCNC(=O)CSc1nc2ccccc2c(=O)n1CC1COc2ccccc2O1 (stereo unspecified)	-7	6%	-14	22%	0%	1.3%	3.8
O=C(COC(=O)c1cccc(Cl)c1Cl)NCc1cccs1	-9	-4%	1	.	10%	0.8%	.
Nc1cc(Br)cc2c1[nH]c(=O)c1ccccc12	.	14%	-9	.	.	1.0%	.
O=C(CSc1nnnn1Cc1ccccc1)Nc1cccc(F)c1	0	2%[15.4 µM]	-4	23%	10%	.	.
O=C(Nc1nnc(-c2ccccc2Cl)o1)c1cccnc1	-29	-56%[inhibitor]	6	11%	-3%	1.7%	3.4
CCOC(=O)[C@H]1[C@H]2COc3cc(OC)ccc3[C@@H]2N2C(=O)c3ccc(F)cc3NC(=O)[C@@]12C	5	.	-17	.	-3%	-0.5%	.
N/N=c1\sc2ccccc2n1-c1ccccc1	8	5%[15.4 µM]	-12	?	-6%	-0.8%	?
O=C(COC(=O)/C=C/c1ccccc1)NCc1ccc(Cl)cc1	-18	0%	-14	1%	10%	1.4%	5.5
Next compounds follow.
SMILES	TRPV1 PAM	gsp ag	D2 PAM	Sfp inh	gsp antag	ClpP mod	Menin MLL FP FL
C/C(=N\NC(=O)c1nnn(-c2nonc2N)c1-c1ccc2c(c1)OCO2)c1ccc(F)cc1	20	31%	-2	13%	2%	-13%	.
CCNc1nc(NCC)n2c(SCC(=O)Nc3ccccc3[N+](=O)[O-])nnc2n1	-4	4%[15.4 µM]	-5	3%	7%	-0.1%	1.3
CCN(CC(=O)Nc1cc(OC)ccc1OC)Cc1nc2ccccc2c(=O)[nH]1	11	3%[15.4 µM]	-13	-46%	-10%	-1.9%	2.2
O=C(CNC(=O)Cc1ccccc1)NCc1cccc(C(F)(F)F)c1	-4	-2%[15.4 µM]	-9	6%	10%	-1.4%	-4.6
O=C(c1ccc(=O)[nH]n1)N1CCc2ccccc2C1	-2	-1%	-15	-16%	12%	-0.2%	0.0
O=C(Cn1c(=O)oc2cc(S(=O)(=O)N3CCCC3)ccc21)N1CCN(c2ccccc2F)CC1	?	?	-11	7%	-4%	1.4%	4.5

Screening results as filed in PubChem.
